Env fusion inh: inhibitors of HIV Env-mediated cell fusion | HeLa-JRFL Env/CEM21 cell fusion, luciferase | inhibition, % at 12.3 µM | 360,000 compounds, 1.1% hits | AID 651610;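 active means mean replicate inhibition score of at least 50 and every replicate individually at or above 50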;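 further: 0% = plate neutral controls and 100% = maraviroc near 300 nM; one replicate is shown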
UUG fidelity: yeast start codon fidelity modulation. 350,000 compounds, 0.13% hits. activity score, % at 18.7 µM. S. cerevisiae UUG-firefly luciferase reporter, luminescence/redox ratio;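 active means replicate mean at a twofold rise or more, about +100% in these data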;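 further: firefly luciferase made from a UUG start codon reports start codon fidelity; reporter light over untreated wells divided by growth signal over untreated wells; some hits fall short of that in this replicate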
MT1-MMP act inh: inhibitors of human MT1-MMP activation | P50281 | HT1080 RFP-PRO-GFP cells, GFP/RFP ratio fluorescence, overnight; percent of plate control window, DMSO zero | GFP/RFP ratio change, % at 20 µM | 360,000 compounds, 0.061% hits;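 active means GFP/RFP ratio change of at least 30% with cell ATP level not reduced by more than half and red fluorescence within 50% of control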; further: strong numbers were not always called active
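Compound: 20 µM single dose, 1% DMSO / System: HT1080 RFP-PRO-GFP cells / Controls: DMSO and RFP-L50D-GFP cell wells / Read-out basis: GFP/RFP fluorescence ratio / Schedule: overnight compound exposure at 37 °C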
CSC inhib: cancer stem cell inhibition | cancer stem cell-like cells viability, luminescence | 300,000 compounds, 1.1% hits | inhibition, % at 7.5 µM | AID 2717;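 active means mean at 75% or more and at least half the replicates too; tested in HMLE shEcad cells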;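 further: 0% = median of negative and 100% = median of positive control wells; the first replicate is given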
MT1-MMP act inh RFP: second read-out of MT1-MMP act inh, no call of its own (marks repeat the call); RFP signal change, %; measured here: RFP expression control read;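 0 = vehicle wells; hits needed this value within 50% of zero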
The depositor's hits bear a star; / = not tested or not shown; & = joins results of further samples; [ ] = remark or other dose. Only part of the results is shown; the hit share may differ from the screen's.

SMILES	Env fusion inh	UUG fidelity	MT1-MMP act inh	MT1-MMP act inh RFP	CSC inhib
O=C(NCCN1CCC2(CC1)C(=O)NCN2c1ccccc1)c1ccccc1F	20.4	/	/	/	/
COC(=O)[C@H]1[C@H](CO)[C@H]2Cn3c(ccc(-c4ccc(F)cc4)c3=O)[C@@H]1N2Cc1cccnc1	3.6[16.7 µM]	/	/	/	/
COc1cccc(-c2ccc3n(c2=O)C[C@H]2[C@H](CO)[C@@H](C(=O)O)[C@@H]3N2Cc2ccccc2F)c1	10.7[16.7 µM]	/	/	/	/
CS(=O)(=O)N1CCC2CCNC2C1 (stereo not given)	-7.2	/	/	/	/
Cc1ccc(OC(=O)N(C)C[C@@H]2OCc3ccccc3-c3c(n(C)c4ccccc34)C(=O)N([C@H](C)CO)C[C@H]2C)cc1	2.5	/	/	/	/
c1ccc(Cc2cnc(N3CCNCC3)nc2)cc1	-9.3	/	/	/	/
COc1cccc(C(=O)NCCN2CCC3(CC2)C(=O)NCN3c2ccccc2)c1	-1.3	/	/	/	/
O=C(NCCN1CCC2(CC1)C(=O)NCN2c1ccccc1)c1cccs1	-1.6	/	/	/	/
c1ccc(-c2nc3ccccc3nc2-c2ccc(CN3CCC(n4nnc5ccccc54)CC3)cc2)cc1	1.0	/	/	/	/
Cc1cccc(S(=O)(=O)N2[C@@H]3Cn4c(ccc(-c5ccc(F)cc5)c4=O)[C@H]2[C@@H](C(=O)O)[C@@H]3CO)c1	3.6[16.7 µM]	/	/	/	/
O=S(=O)(c1ccccc1)N1CCC2CCNC2C1 (stereo not given)	-11.9	/	/	/	/
N#Cc1ccc2nc(-c3ccc(CN4CCC(n5c(=O)[nH]c6cc(Cl)ccc65)CC4)cc3)c(-c3ccccc3)nc2c1	-1.5	/	/	/	/
O=C(NCCN1CCC2(CC1)C(=O)NCN2c1ccccc1)c1cccc(F)c1	23.9	/	/	/	/
CN1C2(C)c3ccccc3C1(c1ccccc1)c1ccccc12	0.7	/	/	/	/
Cc1ccc2nc(-c3ccc(CN4CCC(n5nnc6ccccc65)CC4)cc3)c(-c3ccccc3)nc2c1	14.7	/	/	/	/
O=c1[nH]c2cc(Cl)ccc2n1C1CCN(Cc2ccc(-c3nc4ccc(F)cc4nc3-c3ccccc3)cc2)CC1	3.0	/	/	/	/
COc1cc([N+](=O)[O-])c2ncccc2c1[N+](=O)[O-]	/	/	1.7	12.3	/
CC(CN1CCOCC1)C(C#N)(c1ccccc1)c1ccccc1 (stereo not given)	/	/	-0.3	-0.7	/
CCC(=O)[C@@H](C)[C@@H](O)[C@H](C)C[C@@H](C)C1OC(=O)C[C@@]2(O)CC=C(C)C(O2)C(C)=CCCC[C@H](O[C@H]2C[C@@H](OC(N)=O)[C@H](O)[C@@H](C)O2)C=C[C@H](C)C[C@H]1C (stereo not given in full)	/	/	-12.6	-30.4	/
CC(CC(C#N)(c1ccccc1)c1ccccc1)N1CCCCC1 (stereo not given)	/	/	2.5	1.0	/
O=C1NC(=O)C(=Cc2ccccc2[N+](=O)[O-])C(=O)N1	/	/	0.2	3.9	/
CN(Cc1cccc(-c2ccncc2)c1)C(=O)Oc1ccccc1Cl	/	/	1.1	-29.7	/
c1ccc(CN2COC3CCCCCC32)cc1 (stereo not given)	/	/	2.8	4.0	/
O=C(/C=C/c1ccccc1)N1Cc2ccccc2-n2nncc2C1	/	/	-1.5	-2.4	/

Part of the list above, with two lines to a compound:
The line under a structure holds: Env fusion inh	UUG fidelity	MT1-MMP act inh	MT1-MMP act inh RFP	CSC inhib
O=C(NCCN1CCC2(CC1)C(=O)NCN2c1ccccc1)c1ccccc1F
 : 20.4	/	/	/	/
COC(=O)[C@H]1[C@H](CO)[C@H]2Cn3c(ccc(-c4ccc(F)cc4)c3=O)[C@@H]1N2Cc1cccnc1
 : 3.6[16.7 µM]	/	/	/	/
COc1cccc(-c2ccc3n(c2=O)C[C@H]2[C@H](CO)[C@@H](C(=O)O)[C@@H]3N2Cc2ccccc2F)c1
 : 10.7[16.7 µM]	/	/	/	/
CS(=O)(=O)N1CCC2CCNC2C1 (stereo not given)
 : -7.2	/	/	/	/
Cc1ccc(OC(=O)N(C)C[C@@H]2OCc3ccccc3-c3c(n(C)c4ccccc34)C(=O)N([C@H](C)CO)C[C@H]2C)cc1
 : 2.5	/	/	/	/
c1ccc(Cc2cnc(N3CCNCC3)nc2)cc1
 : -9.3	/	/	/	/
COc1cccc(C(=O)NCCN2CCC3(CC2)C(=O)NCN3c2ccccc2)c1
 : -1.3	/	/	/	/
O=C(NCCN1CCC2(CC1)C(=O)NCN2c1ccccc1)c1cccs1
 : -1.6	/	/	/	/
c1ccc(-c2nc3ccccc3nc2-c2ccc(CN3CCC(n4nnc5ccccc54)CC3)cc2)cc1
 : 1.0	/	/	/	/
Cc1cccc(S(=O)(=O)N2[C@@H]3Cn4c(ccc(-c5ccc(F)cc5)c4=O)[C@H]2[C@@H](C(=O)O)[C@@H]3CO)c1
 : 3.6[16.7 µM]	/	/	/	/
O=S(=O)(c1ccccc1)N1CCC2CCNC2C1 (stereo not given)
 : -11.9	/	/	/	/
N#Cc1ccc2nc(-c3ccc(CN4CCC(n5c(=O)[nH]c6cc(Cl)ccc65)CC4)cc3)c(-c3ccccc3)nc2c1
 : -1.5	/	/	/	/
O=C(NCCN1CCC2(CC1)C(=O)NCN2c1ccccc1)c1cccc(F)c1
 : 23.9	/	/	/	/
CN1C2(C)c3ccccc3C1(c1ccccc1)c1ccccc12
 : 0.7	/	/	/	/

(cont.)
SMILES	Env fusion inh	UUG fidelity	MT1-MMP act inh	MT1-MMP act inh RFP	CSC inhib
C(#CCN1CCCCC1)CN1CCCCC1	/	/	3.6	6.1	/
C[C@]12CC[C@H](O)CC1=CCC1C2CC[C@]2(C)C(=O)[C@H](Br)CC12 (stereo not given in full)	/	/	2.4	3.0	3.6
CCOC(=O)[C@@H]1[C@@H]2NC(=S)N(C)[C@@]1(COCc1ccc(OC)cc1)Oc1ccccc12	-3.0[16.7 µM]	11.8	/	/	/
CCOC(=O)[C@@H]1[C@@H]2NC(=O)N(C)[C@@]1(C)Oc1ccccc12	-1.9[16.7 µM]	-14.2	/	/	/
O=c1c2ccccc2nc(CBr)n1-c1ccc(Cl)cc1	-20.0	-6.8	/	/	/
C[C@@H]1CN([C@@H](C)CO)C(=O)CCCn2cc(nn2)CO[C@@H]1CN(C)C(=O)Oc1cccc2ccccc12	-19.4[16.7 µM]	15.6	/	/	/
CN1CC[C@]23c4c5ccc(OC6OC(C(=O)O)[C@@H](O)C(O)[C@H]6O)c4OC2C(O)C=CC3[C@H]1C5 (stereo not given in full)	/	-15.3	-2.3	4.4	/
COc1ccc(CC2NCC(O)C2OC(C)=O)cc1 (stereo not given)	/	-7.1	-34.3	-46.2	/
CC1[C@H]2Cc3ccc(O)cc3[C@]1(C)CCN2C (stereo not given in full)	/	-6.8	0.1	4.0	/
Cc1cc(-c2cc(C)c(N)c(C)c2)cc(C)c1N	/	0.8	4.2	4.0	/
COc1ccc(-n2c(-c3ccccc3F)nc3ccccc3c2=O)cc1	/	5.3	-3.4	-1.1	/
CCC(=O)OC(Cc1ccccc1)(c1ccccc1)[C@H](C)CN(C)C (stereo not given in full)	/	1.7	-2.1	1.7	/
O=C(NCC1=C(c2cccc3ccccc23)C[C@@H]2CC[C@H]1N2Cc1ccco1)c1ccncc1	/	-11.0	6.4	3.1	/
CCOC(=O)C1(c2ccccc2)CCN(CCC(=O)Nc2ccc(F)cc2)CC1	/	-6.9	7.9	-1.4	/
O=C(NCC1=C(c2cccc3ccccc23)C[C@@H]2CC[C@H]1N2Cc1ccco1)c1cccnc1	/	-10.1	-3.1	3.3	/
Oc1ccc2c3c1OC1[C@H](O)CC[C@@]4(O)[C@@H](C2)N(CC2CC2)CC[C@]314 (stereo not given in full)	/	-8.1&-30.8	-0.1&1.4	1.6&-0.7	/
CCCCNC(C)Cc1ccccc1 (stereo not given)	/	-16.3	1.0	6.3	/
O=[N+]([O-])c1cccc(NP(=O)(N2CC2)N2CC2)c1	/	-14.6	5.4	12.3	/
COC1C(O)C(C)OC(OC2CCC3(C=O)C(CCC4C3CCC3(C)C(C5=CC(=O)OC5)CCC43O)C2)C1O (stereo not given)	/	4.1	-40.0	-34.8	/
N#CCCCCC#N	/	-12.6	2.2	0.6	/
O=C1C2CC(CN3CCCCC23)C2CCCCN12 (stereo not given)	/	-6.6	1.4	3.2	/
O=C/C=C/c1ccccc1	/	-6.2	-2.3	1.4	/
N[C@@H]1CC[C@@]2(O)[C@H]3Cc4ccc(O)c5c4[C@@]2(CCN3CC2CC2)C1O5 (stereo not given in full)	/	1.7	-2.1	4.7	/
CCC1(c2ccccc2)C(=O)NC(=O)NC1=O	/	-20.1	-0.2	5.7	/
COC(=O)[C@@H](c1ccccc1)C1CCCCN1 (stereo not given in full)	/	13.0	-3.0	4.1	/
C=C1C(=O)OC2C1CCC(C)C1(O)C=CC(=O)C21C (stereo not given)	/	-19.4	-6.8	-9.7	/
CC(C)CC(N(C)C)C1(c2ccc(Cl)cc2)CCC1 (stereo not given)	/	-20.8&-17.1	-2.8&-4.2	3.8&2.7	/
O=c1ccc2cc3ccoc3c(O)c2o1	/	-6.1	5.2	6.6	/
CC(=O)N[C@@H]1CC[C@@]2(O)[C@H]3Cc4ccc(O)c5c4[C@@]2(CCN3CC2CC2)[C@@H]1O5	/	-14.5	-3.9	1.5	/
Oc1cc(Cl)c(Cl)c(Cl)c1	/	-7.4	-4.8	-5.8	/
CSCCC(c1nnnn1C(C)(C)C)N1CCC(n2c(=O)[nH]c3ccccc32)CC1 (stereo not given)	/	-0.3	2.1	1.1	/
CC12CCC3c4ccc(OP(=O)(N5CC5)N5CC5)cc4CCC3C1CCC2=O (stereo not given)	/	-6.3	2.1	-0.8	/
Oc1cc(Cl)c(Cl)c(Cl)c1Cl	/	-29.4	-0.9	-2.0	/
C=CCN1CC[C@]23c4c5ccc(O)c4OC2C(O)CC[C@@]3(O)[C@H]1C5 (stereo not given in full)	/	-2.8	-2.5	5.0	/
Nc1ccc(Cl)c(Cl)c1	/	-10.4	-1.5	2.6	/
COc1ccc2c(c1)C1(C)CCN(C)CC(C1)C2O (stereo not given)	/	0.6	0.5	3.4	/
COc1cccc2c1cc([N+](=O)[O-])c1c(C(=O)O)cc3c(c12)OCO3	/	-6.2	-6.0	-5.1	/
O=C1NCN(c2ccccc2)C12CCN(C(c1cccs1)c1nnnn1Cc1ccccc1)CC2 (stereo not given)	/	-1.8	1.6	-6.7	/
CN1CC[C@]23c4c5ccc(O)c4OC2C(O)C=CC3[C@H]1C5 (stereo not given in full)	/	-4.4	-1.3	5.7	/
CC(=O)OC1(C)CC(C)C(=O)C(C(O)CC2CC(=O)NC(=O)C2)C1 (stereo not given)	/	95.3	-38.8	-45.2	/
C[C@]12CCC3C(CC[C@H]4C[C@@H](O)CC[C@]34C)C1C[C@@H](O)[C@@H]2O (stereo not given in full)	/	-10.2	-3.0	-2.2	/
COC1=CC=C2[C@H]3Cc4ccc(OC)c5c4[C@@]2(CCN3C)C1O5 (stereo not given in full)	/	-11.7	-9.0	1.9	/
CNC1(c2ccccc2Cl)CCCCC1=O (stereo not given)	/	-13.3	0.1	4.3	/
COc1cc2c(c(OC)c1O)-c1ccc(OC)c(=O)cc1C(NC(=O)C(F)(F)F)CC2 (stereo not given)	-110.6	/	22.6	4.8	/
CN1CC(Br)C(=O)NC1=O (stereo not given)	-26.6	/	-3.0	3.4	/
COc1cccc2c1C(=O)c1c(O)c3c(c(O)c1C2=O)CC(O)(C(C)=NO)CC3OC1CC(N)C(O)C(C)O1 (stereo not given)	-346.3	/	-16.8	50.5	/
O=C1NC(=O)C(Cc2ccccc2)(Cc2ccccc2)C(=O)N1Cc1ccccc1	24.6	/	-10.3	-15.7	/
CCOC(=O)[C@]12Cc3cc(OC)ccc3[C@H]1N(CC(=O)OC)C(=O)c1ccccc12	-1.8	/	-2.9	2.5	/
O=C1c2ccccc2-c2cc3ccccc3cc21	-17.2	/	-0.1	-0.6	/
C=C(C)C1(CCCC)C(=O)NC(=S)NC1=O	8.0	/	-2.4	2.2	/
CN1C(=O)C(C2CCCCC2)C(=O)N(C)C1=O	15.3	/	-1.4	1.5	/
C=CCCC1(C(C)C)C(=O)NC(=S)NC1=O	-6.6	/	-0.7	3.7	/
COC1C(O)C(C)OC(OC2CCC3(C)C(CCC4C3C(O)CC3(C)C(C5=CC(=O)OC5)CCC43O)C2)C1O (stereo not given)	86.2*	/	-50.2	-30.3	/
